Screening results as filed in PubChem BioAssay.
KAT2A inh = inhibitors of human GCN5L2 histone acetyltransferase. GCN5L2 HAT assay, ThioGlo1 CoA-SH fluorescence. Potency, µM (titrated, usually from 58.9 µM), for the others: at the highest dose activity change, negative = inhibition, most hits filed as inhibitors. Q92830. 390,000 tested, 0.21% active; active means well fitted inhibition curve with a large enough effect; inconclusive means small, poorly fitted or top-dose-only effect, or another doubt; inactive means no such curve, though single readings can be large or run the other way
Target sequence (Q92830 whole entry, looked up): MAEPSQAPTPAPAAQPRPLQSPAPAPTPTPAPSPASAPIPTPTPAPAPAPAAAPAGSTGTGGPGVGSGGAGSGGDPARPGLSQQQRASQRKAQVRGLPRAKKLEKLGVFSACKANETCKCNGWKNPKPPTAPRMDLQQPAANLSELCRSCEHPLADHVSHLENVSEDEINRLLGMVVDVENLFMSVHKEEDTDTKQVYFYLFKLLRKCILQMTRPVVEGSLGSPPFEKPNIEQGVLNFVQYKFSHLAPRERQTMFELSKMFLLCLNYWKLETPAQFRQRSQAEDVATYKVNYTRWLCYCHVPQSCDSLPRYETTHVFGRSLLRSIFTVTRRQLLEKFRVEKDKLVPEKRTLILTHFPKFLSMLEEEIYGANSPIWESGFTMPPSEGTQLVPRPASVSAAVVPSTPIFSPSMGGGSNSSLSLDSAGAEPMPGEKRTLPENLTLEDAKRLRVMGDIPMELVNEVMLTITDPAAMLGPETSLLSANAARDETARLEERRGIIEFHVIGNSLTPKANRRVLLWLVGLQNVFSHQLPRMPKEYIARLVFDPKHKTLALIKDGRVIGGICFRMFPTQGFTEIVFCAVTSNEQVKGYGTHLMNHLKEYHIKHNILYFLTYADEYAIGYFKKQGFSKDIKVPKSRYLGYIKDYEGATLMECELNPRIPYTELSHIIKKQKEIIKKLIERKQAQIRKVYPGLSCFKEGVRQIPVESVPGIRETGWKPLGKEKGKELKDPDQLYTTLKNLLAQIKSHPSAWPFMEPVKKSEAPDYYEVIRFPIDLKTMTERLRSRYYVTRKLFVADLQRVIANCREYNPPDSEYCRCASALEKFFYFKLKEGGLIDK
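Enzyme at 20nM final was mixed with library compounds for 15 min at room temperature. Peptide H3(1-25) at 75uM, acetyl-CoA at 70uM and ThioGlo1 at 50uM were then added. Plates were read immediately and after 20 min (Ex340nm/Em540nm).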
Active calls of the source: *; u = inconclusive; & = joins results of further samples; [ ] = remark or other dose. On the % scale 0 is the no-effect control and ±100 the full control effect; potency means the concentration at half of the fitted maximal effect.

Compound | KAT2A inh
CCOC(=O)c1ccc(N2C(=O)c3n[nH]c(C)c3C2c2ccc(C(C)C)cc2)cc1 (centres undefined) | -3%
COc1ccccc1/C=C(/C(=O)OCC(N)=O)c1ccccc1 | 0%
Cc1ccccc1NC(=O)C1CCCN(S(=O)(=O)c2ccc(-n3cnnn3)cc2)C1 (centres undefined) | -5%
CCOC(=O)c1sc2ccccc2c1S(=O)(=O)Nc1cc(OC)ccc1OC | -9%
COc1ccc(N(CC(=O)NC2CC3CCC2C3)S(=O)(=O)c2ccc(C)c([N+](=O)[O-])c2)cc1 (centres undefined) | -11%
CCN(CC)CCNC(=S)Nc1ccc(Cl)cc1 | -1%
NC(=O)c1ccc(CN2CCC(Cc3ccccc3)CC2)cc1 | -5%
CCC(C)(C)NC(=O)C(c1ccc(OC)cc1)N(C(=O)CCC(=O)Nc1cc(C)on1)c1ccccc1OC (centres undefined) | -3%
O=C(/C=C/c1ccc2c(c1)OCO2)Nc1cc(S(=O)(=O)N2CCOCC2)ccc1N1CCOCC1 | -11%
CC1N/C(=C\C(=O)c2ccccc2)N(O)C1(C)C (centres undefined) | -3%
CCN(CC)CCNC(=O)c1ccc2c(=O)n3nc(Nc4ccccc4OC)sc3nc2c1 | -10%
O=C(CSc1nnc(C2CC2)n1C1CC1)c1cc(F)ccc1F | -8%

Reprinted from the listing, 5 compounds:
Compound | KAT2A inh
CCOC(=O)c1ccc(N2C(=O)c3n[nH]c(C)c3C2c2ccc(C(C)C)cc2)cc1 (centres undefined) | -3%
COc1ccccc1/C=C(/C(=O)OCC(N)=O)c1ccccc1 | 0%
Cc1ccccc1NC(=O)C1CCCN(S(=O)(=O)c2ccc(-n3cnnn3)cc2)C1 (centres undefined) | -5%
CCOC(=O)c1sc2ccccc2c1S(=O)(=O)Nc1cc(OC)ccc1OC | -9%
COc1ccc(N(CC(=O)NC2CC3CCC2C3)S(=O)(=O)c2ccc(C)c([N+](=O)[O-])c2)cc1 (centres undefined) | -11%

Further structures:
Compound | KAT2A inh
CCOc1cc(C(=O)N(C)Cc2cc3ccccc3[nH]c2=O)cc(OCC)c1OCC | -1%
CC(=O)Nc1ccc(S(=O)(=O)N(C)c2ccc(OCC(=O)OCC(=O)NCc3ccco3)cc2)cc1 | -13%
NC(=O)C1CCN(C(=O)C2CCN(S(=O)(=O)c3ccccc3)CC2)CC1 | 0%
COc1ccc(OCC(=O)N/N=C(\C)CC(=O)Nc2ccc(OC)cc2[N+](=O)[O-])cc1 | -6%
CCc1ccc(CNC(=O)CN2C(=O)COc3ccccc32)cc1 | 3%
COc1cc(C2CC(=O)Nc3cc4c(cc32)OCCO4)cc(Br)c1OC (centres undefined) | -1%
COc1ccc(N2C(C)=CS/C2=C(/C#N)c2nnc(N3CCOCC3)n2-c2ccccc2)cc1 | u
O=C(NN=C(Cc1ccccc1)Cc1ccccc1)c1ccc(F)cc1 | -3%
Cc1ccc2cccc(OCC(=O)Nc3ccc4c(c3)OCO4)c2n1 | 1%
O=C(OCC(=O)N1CCN(C(=O)c2ccco2)CC1)c1cc(=O)c2ccccc2o1 | -5%
O=C(Nc1ccc(N2CCCCC2)cc1)c1ccc([N+](=O)[O-])o1 | u
CCOc1ccc(NC(=O)CSc2nnc(C3CC3)n2C2CC2)cc1 | 0%
CCc1ccc(NC(=O)C2CC(=O)N=C(N)S2)cc1 (centres undefined) | -18%
O=C(Nc1ccccc1)Nc1ccc(S(=O)(=O)N2CCCCC2)cc1 | -10%
Cc1cc2c(N3CCCCC3C)ncnc2s1 (centres undefined) | -13%
CC(=O)OCC(=O)[C@@]1(O)[C@H](C)C[C@@H]2[C@H]3CCC4=CC(=O)C=C[C@]4(C)[C@]3(F)[C@@H](O)C[C@@]21C | 8%[21.4 µM]
O=C(Cn1cc(/C=N/O)c2ccccc21)N1CCOCC1 | 3%
Cc1ccc(NC(=O)C2CC(=O)n3c(nc4ccccc43)N2)cc1Cl (centres undefined) | -5%
CN(C)/C=N/c1cc(=O)n(C)c(=O)n1CC1CC1 | 0%
COc1cc(S(=O)(=O)N2CCN=C2c2ccccc2)ccc1Cl | -2%
Cc1cc(C)c(NC(=O)CNC(=O)COC(=O)C2CCN(c3ccc(C(F)(F)F)cn3)CC2)c(C)c1 | -19%
OCCN(CCO)c1ncnc2c1oc1ccc(Br)cc12 | -1%
Cc1cccn2cc(-c3cccc(NC(=O)c4cccs4)c3)nc12 | -4%
COc1ccc(C(=O)NCc2nnc(SCC(=O)N3CCCCC3)o2)cc1 | 1%
COCCNC(=O)CCCn1c(=O)c2cc(OC)c(OC)cc2n(CC(=O)Nc2ccc(F)cc2)c1=O | -2%&-1%
O=C(Nc1ccccc1)Nc1nnc(SCC(=O)N2CCCCC2)s1 | -2%
CC1(C)Cc2ccccc2/C(=C/C(=O)c2ccccc2)N1 | u
CSc1ccccc1C(=O)C1CCCN(C(=O)CCN2CCCO2)C1 (centres undefined) | -2%
COCn1c(-c2ccc(OC)c(OC)c2)nc2ccccc21 | -1%
COC(=O)c1cc(OC)c(OC)cc1NC(=O)Cn1nnc(-c2ccccc2Cl)n1 | 0%
COC(=O)CCNC(=O)c1nn(Cc2ccccc2)c(=O)c2ccccc12 | -1%
CCCOC(=O)C(C)Sc1n[nH]c(=O)[nH]c1=O (centres undefined) | -4%
COc1nc(Oc2ccc(=O)n(C)n2)nc(N(C)C)n1 | -1%
COc1ccc(CN=C2NN=C(c3ccc(Cl)cc3)CS2)cc1 | 3%
CCCCCC1CC(CC(C)C(=O)Nc2nncs2)C(=O)O1 (centres undefined) | 2%
Cc1cccc(Cc2nnc(CCC(=O)N(C)Cc3ccncc3C)o2)c1 | u
Cc1nnc(SCC(=O)NC(=O)Nc2ccc3c(c2)OCCO3)s1 | -4%
Cc1ccc(C(=O)NCCNC(=O)c2ccccc2)cc1 | -7%
COC(=O)[C@@H]1OC(=O)[C@H]2O[C@@]23[C@@]1(C)CC[C@@H]1[C@@]2(C)C=CC(=O)OC(C)(C)[C@@H]2CC(=O)[C@]13C | -5%
Cc1ccccc1OCC1Cn2c(nc3c2c(=O)n(C)c(=O)n3C)O1 (centres undefined) | -1%
O=C1C2C(C(=O)N1Cc1ccco1)C1C=CC2C12CC2 (centres undefined) | -6%
CCOC(=O)Nc1ccc2c(CN3CCN(S(=O)(=O)c4ccccc4F)CC3)cc(=O)oc2c1 | 0%
CN(C)S(=O)(=O)c1ccc2c(c1)N(CC(=O)NCc1ccccc1)C(=O)C1CCCCN21 (centres undefined) | 0%
CCOc1ccc(CNCc2cccnc2)cc1 | -1%
Cc1cccc(NC(=O)C2CCCN(S(=O)(=O)c3ccc(Br)s3)C2)c1 (centres undefined) | -9%
O=C(CSc1nnc(SCc2cccc3ccccc23)s1)N/N=C/C=C/c1ccccc1[N+](=O)[O-] | -7%
CSCCC1NC(=O)N(CC(=O)N2N=C(c3ccc(Cl)cc3)CC2c2ccco2)C1=O (centres undefined) | -11%
O=C(O)c1cc(S(=O)(=O)Nc2ccc(OCc3ccccc3)cc2)ccc1Br | 0%
COc1cccc(NC(=O)C2CCN(c3ncccn3)CC2)c1 | -5%
O=C(NCc1ccccc1)c1ccc(OCC2CCCO2)cc1 (centres undefined) | 0%
C#CCNC(=O)C1=C[C@H](C2CCCCC2)[C@@H](CCCO)[C@H](OCC)O1 | 2%
O=C(/C=C/c1ccc(Cl)cc1)N(Cc1ccccc1)c1ccccn1 | -6%
O=C(COC(=O)CNC(=O)c1ccccc1)Nc1ccc(Cl)cc1C(F)(F)F | 3%
CCc1cc(CNC(=O)CC2C(=O)NCCN2Cc2ccccc2C(F)(F)F)on1 (centres undefined) | 3%
COc1ccccc1C(=O)NC(=O)COC(=O)c1nccnc1N | -6%
CC(Sc1ccc(Cl)cc1)C(=O)Nc1ccc2c(c1)OCO2 (centres undefined) | 0%
COCCN1C(=O)C(=O)/C(=C(/O)c2ccc(S(=O)(=O)N3CCOCC3)cc2)C1c1ccc(OC)c(OC)c1 (centres undefined) | -1%
CCOc1ccc(-c2cc(C(=O)NCCc3ccc(C)cc3)c3ccccc3n2)cc1 | -4%
O=C(O)CCC(=O)OC1CC2CCC1C2 (centres undefined) | -3%
Cc1ccccc1NC(=S)N(CCCN1CCCCC1)Cc1ccco1 | -6%

Continuation:
Compound | KAT2A inh
CCC(=O)NC(Nc1ccccn1)(C(=O)OC)C(F)(F)F (centres undefined) | 0%
CCc1ccc(-c2nc(-c3ccncc3)no2)cc1 | 0%
Cn1ccsc1=NC(=O)c1ccc(CS(C)(=O)=O)cc1 | -6%
O=C(Nc1ccc(Cl)cc1)[C@@H]1[C@@H]2C(=O)N(c3cccc(F)c3)C(=O)[C@@H]2[C@H]2C=CC=NN21 | -21%
Cc1ccc(N2C(=O)C3C(C2=O)N2C(c4cccs4)C4C(=O)N(c5ccc(C)cc5)C(=O)C4N2C3c2cccs2)cc1 (centres undefined) | -8%
COC(=O)c1nnn(CC(=O)NC(=O)Nc2ccc(F)cc2)c1C(=O)OC | 3%&-4%
CC(C)(C)c1ccc(C(=O)Nc2ccc(-c3nc4cc(Cl)ccc4o3)cc2)cc1 | -9%
CNc1nc(N)c([N+](=O)[O-])c(NCc2ccccc2)n1 | 1%
COCCNC(=O)NC(=O)COC(=O)c1cc([N+](=O)[O-])ccc1Sc1nc(C)cs1 | -1%
CCC(=O)NCCc1nc2cc(NC(=O)c3cccc(Br)c3)ccc2n1C | -15%
O=C(Nc1ccc(S(=O)(=O)N2CCCCCC2)cc1)c1c(F)cccc1F | -10%
Cc1cc(=O)[nH]c(N2CCc3ccccc3C2)n1 | -2%
COc1ccc(C2CC(=O)C=C(NCc3ccccc3)C2)cc1 (centres undefined) | -11%
C=CCN1CCN(C(=O)c2cc3c(s2)CCCC3)CC1 | 2%
COc1ccccc1NS(=O)(=O)c1cccc(C(=O)NNC(=O)c2ccc(Cl)nc2)c1 | -2%
COc1cccc(NC(=O)c2ccc3c(SCC(=O)O)c4c(nc3c2)CCCC4)c1 | -9%
CN1C(=O)c2ccc(NC(=O)c3cccc(N4C(=O)CCC4=O)c3)cc2C1=O | u
Cn1c(=O)c2nc(SCC(=O)Nc3ccc(Cl)c(Cl)c3)n(C)c2n(C)c1=O | -3%
CCCCn1c(SCC(=O)NCCOC)nc2ccc(N3CCOCC3)cc2c1=O | -8%
CCOC(=O)c1cc2sccc2n1CC(=O)Nc1ccc(OC)cc1OC | -4%
CC1(C)CC(=O)C=C(c2ccc(Oc3ccccc3)cc2)C1 | 0%
Cc1ccn(C)c(=N)c1 | 13%
O=C(/C=C\c1ccc2c(c1)OCO2)NC1(C(=O)Nc2ccc3c(c2)OCCO3)CCCCC1 | 4%
CCc1cccc(NC(=O)C2CCN(S(=O)(=O)c3cccs3)CC2)c1 | -22%
CCOc1ccc2nc(COC(=O)c3ccco3)c(C(C)=O)[n+]([O-])c2c1 | -8%
COc1ccc(-c2csc(N(CCCN(C)C)C(=O)c3cccs3)n2)cc1 | -2%
CCOC(=O)CNC(=O)CSc1nnc(NC(=O)c2ccccc2Cl)s1 | 2%
CCCCC(=O)Nc1cccc(-c2cn3ccccc3n2)c1 | -3%
Cc1c(C(=O)NC(=S)Nc2ccc(N3CCOCC3)cc2)cccc1[N+](=O)[O-] | -4%
Cc1ccc(N(O)C(=O)OCCNC(=O)Nc2ccccc2)cc1 | 1%
COc1ccc(NC2CCCN(C(=O)c3ccncc3)C2)cc1 (centres undefined) | -11%
C=CCn1c(=O)c2ccccc2n2c(SCC(=O)N3CCCc4ccccc43)nnc12 | 0%
COc1ccccc1N1C(=O)N(C(C)=O)C2C1Nc1ccccc1N2C (centres undefined) | -4%
COCCCNC(=O)c1ccc2c(=O)n(Cc3ccc4c(c3)OCO4)c(=S)[nH]c2c1 | -3%
Cc1ccc(-c2nn(C)c(=O)c3ccccc23)cc1S(=O)(=O)NCCO | 2%
CCOC(=O)C(=O)/C(=C\N(C)C)c1onc(-c2ccccc2)c1C(=O)OC | -7%

Entries above that contain a CF3 group:
Compound | KAT2A inh
Cc1cc(C)c(NC(=O)CNC(=O)COC(=O)C2CCN(c3ccc(C(F)(F)F)cn3)CC2)c(C)c1 | -19%
O=C(COC(=O)CNC(=O)c1ccccc1)Nc1ccc(Cl)cc1C(F)(F)F | 3%
CCc1cc(CNC(=O)CC2C(=O)NCCN2Cc2ccccc2C(F)(F)F)on1 (centres undefined) | 3%
CCC(=O)NC(Nc1ccccn1)(C(=O)OC)C(F)(F)F (centres undefined) | 0%

Remaining list, next part.
Compound | KAT2A inh
CCc1ccccc1NC(=O)c1cc(-c2cccc(O)c2)on1 | -7%
O=C(CCNS(=O)(=O)c1ccccc1)OCC(=O)c1ccc(Br)cc1 | -4%
CCCCn1c(N)c(N(CC)C(=O)c2cc(S(=O)(=O)N3CCCCCC3)ccc2OC)c(=O)[nH]c1=O | -3%
CCOC(=O)c1ccc(NC(=S)NN2CCOCC2)cc1 | -4%
CC1CCCN(S(=O)(=O)c2ccccc2[N+](=O)[O-])C1 (centres undefined) | -1%
O=C(NCCSc1ncc(-c2ccc(F)cc2)[nH]1)c1ccc2c(c1)OCO2 | 3%
CCCn1cnc2c(cnn2-c2ccc(F)cc2)c1=O | 1%
CSc1nsc(SC)c1C(=O)O | -17%
Cc1ccc(C(=O)NCc2ccccn2)c(Cl)c1 | -1%
O=C1NC(=O)/C(=C\c2ccc(Oc3ccc([N+](=O)[O-])cn3)cc2)S1 | -10%
Fc1cccc(Cl)c1Cn1nnc2c(N3CCC4(CC3)OCCO4)ncnc21 | -1%[0.501 µM]

The list is partial; most or all hits stand in other tables.
